PINK1 modulator = PINK1 expression modulation | PINK1 immunofluorescence, high-content cytometry, 24 h | Potency, µM (series often up to 76.6 µM), without a hit: at the top dose activation (PINK1 increase), hits mostly activators | hit rate 0.2% among 410,000; active = well fitted activation curve with a large enough effect; inconclusive = small, poorly fitted or top-dose-only effect; inactive = flat fitted curve, though single readings scatter; cell line not stated here;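 also: % of control where 0% means no effect; nearly all actives have a fitted effect of over 65% in size; a mitochondrial uncoupler was the plate control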
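Compound titrations (5 concentrations, 24 h) on a stable cell line; DMSO and CCCP controls. Endpoint: fixed-cell PINK1 immunofluorescence with mitochondrial, cell and nuclear markers, scanned by microplate cytometer.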
* marks the source's active call; other numbers are inactive results; u = inconclusive. Potency is read from the fitted curve at half-maximal effect. An excerpt; rates above refer to the full screens.

PINK1 modulator	smiles
0.8%	COc1cc(OC)c2c(C)c(CC(=O)NCc3ccccc3OC)c(=O)oc2c1
0.5%	Cc1cc(F)ccc1NC(=O)C1CCN(C(=O)c2cnn(-c3ccccc3)c2-n2cccc2)CC1
-0.1%	CCCCCCCCCCCCCC(=O)Nc1ccc(/C=C/c2ccnc3ccccc23)cc1
u	Cc1ccc(NC(=O)CSc2nnc3[nH]c(=O)cc(-c4ccccc4)n23)cc1Cl
0.7%	O=S(=O)(NCc1nc2cccnc2n1Cc1ccccc1)c1ccc2c(c1)CCCC2
1.3%	CCN(C(=O)c1nn(-c2ccc(OC)c(Cl)c2)c(=O)c2c1c1ccccc1n2C)c1cc(OC)ccc1OC
8.6%	Cc1ccc(-n2ncc3c(NCCCN(C)C)ncnc32)cc1Cl
9.7%	Cc1cccc(C)c1NC(=O)Cn1c(=O)n(CCC(=O)NCc2ccccc2Cl)c(=O)c2sccc21
1.6%	CCCCCOc1ccccc1Cn1c(=O)oc2ccc(C)cc21
2.4%	CCc1nc2nc(C)cc(Nc3ccc(Br)cc3F)n2n1
4.5%	Cc1ccccc1OCCn1c(CCNC(=O)C(C)(C)C)nc2ccccc21
-1.0%	CCOc1ccccc1NC(=O)C(Cc1ccccc1)NS(=O)(=O)c1ccc(Br)s1 (stereo unspecified)
-1.0%	O=C(/C=C/c1ccccc1)N1CCN(Cc2cc(=O)n3nc(-c4ccccc4Cl)sc3n2)CC1
0.0%	Cc1ccc(S(=O)(=O)c2nnn3c2nc(NC(C)C)c2cc(Cl)ccc23)cc1C
-0.3%	CC(C)OCCCNC(=O)CCCN1C(=O)CCn2nc(-c3cccn3C)cc21
1.7%	COc1cccc(CN2CCC3(CC2)c2ccccc2[C@@H](NC(=O)c2ccccc2)[C@@H]3O)c1O
0.7%	Cc1ccc(-c2cc(C(=O)N3CCN(S(=O)(=O)c4ccc(Br)s4)CC3)[nH]n2)c(C)c1
1.3%	CS(=O)(=O)N1CCc2cc(C(=O)Nc3cccc(F)c3)ccc21
8.8%	Cc1cc(C)cc(OCC(=O)Nc2ccc(-c3nc4ccccc4s3)cc2)c1
4.4%	COc1ccccc1CNC(=O)CS(=O)(=O)Cc1nc(-c2ccccc2C)oc1C
0.7%	Cc1ccccc1NC(=O)c1cnc2sc(N3CCCC3)nn2c1=O
0.1%	COc1ccccc1C(=O)Nc1c(C(=O)NC(C)(C)C)oc2ccccc12
-0.1%	COc1cc(OC)c(NC(=O)C(C)n2nc(-c3ccc(C)cc3)c3c(c2=O)CCCC3)cc1Cl (stereo unspecified)
2.2%	COCCn1c(C)cc(O)c(C(c2ccccc2OC)N2CCCCC2)c1=O (stereo unspecified)
4.4%	CCOc1ccc(-c2cc(NC(=O)Nc3cccc(C(C)=O)c3)c(C(=O)OC)s2)cc1

(further entries)
PINK1 modulator	smiles
-1.2%	O=C(Nc1ccc(Cl)cc1Cl)c1cc(S(=O)(=O)N2CCc3ccccc32)ccc1F
-0.3%	CCc1ccccc1NC(=O)CSc1nc2c(oc3ccccc32)c(=O)n1-c1ccccc1
4.1%	CC1Cc2cc(S(=O)(=O)CCC(=O)Nc3ccc(OC(F)(F)F)cc3)ccc2N1C(=O)C1CC1 (stereo unspecified)
1.5%	Cc1ccc(N(CC(=O)N2CCN(c3ccc(Cl)cc3)CC2)S(=O)(=O)c2c(C)nn(C)c2C)cc1
0.0%	Cc1cccc(C(=O)OCc2cc(=O)n3ccsc3n2)c1
3.8%	CCN(CC)C(=O)c1sc2c(c1C)c(=O)n(-c1ccc(Cl)c(Cl)c1)c(=O)n2Cc1cc(=O)n2c(C)cccc2n1
-1.7%	Cc1cc([N+](=O)[O-])ccc1NC(=O)CSc1nccn1C
3.4%	COc1ccc(-c2noc(-c3ccc(NCc4ccco4)c([N+](=O)[O-])c3)n2)cc1
-0.2%	CCOc1cc2[nH]c(=O)n(CCC(=O)N3CCN(c4ccccc4)CC3)c(=O)c2cc1OCC
-0.9%	COCCCNC(=O)N1[C@H](c2cccs2)[C@@H](C)C(=O)[C@@H](C)[C@@H]1c1cccs1
-0.1%	CCc1ccc2[nH]c(=O)c(CN(Cc3cccnc3)Cc3nnnn3Cc3ccccc3)cc2c1
1.5%	COc1ccc(-c2nc(SCC(=O)Nc3c(C)cc(C)cc3C)n[nH]2)cc1
-0.1%	O=C(C1CCCCC1)N(Cc1cccnc1)c1nc2c(F)cc(F)cc2s1
1.1%	Cc1ccc(-c2c3c(=O)n(C)c(=O)n(C)c3c3cnc4ccccc4n23)cc1
1.0%	CC(=O)Nc1nc2n(n1)C(c1ccc(F)cc1)C=C(c1ccc(Cl)cc1)N2 (stereo unspecified)
-1.1%	Cc1ccc(C(=O)Nc2ccc(Br)cc2)cc1S(=O)(=O)NCc1ccccc1
1.5%	Cc1ccc(C(=O)Nc2ccc(C(=O)O)cc2)cc1S(=O)(=O)N1CCC(C)CC1
-1.0%	O=S(=O)(NCc1csc(-c2ccccc2)n1)c1ccccc1
0.6%	CCOC(=O)c1c(S(=O)(=O)N2CCCC(C(=O)Nc3cccc(C#N)c3)C2)c(C)n(C)c1C (stereo unspecified)
8.7%	COc1cccc(Cn2c(=O)cc(C)c3c(C)nn(C)c32)c1
0.3%	O=S(=O)(c1ccc(Cl)cc1)c1nnn2c1nc(NCc1ccccc1)c1sccc12
-1.6%	COc1ccc(F)cc1S(=O)(=O)NCC(c1ccco1)S(=O)(=O)c1cccs1 (stereo unspecified)
-2.1%	Cc1cccc(NS(=O)(=O)c2ccc(Cl)c(C(=O)Nc3ccccc3C)c2)c1
-0.7%	COc1ccc(C(=O)Oc2cc(-c3ccc(OC)c(OC)c3)cc(=O)c3c(C)oc(C)c23)cc1
-0.3%	Cc1cccc(N(C)S(=O)(=O)c2nnc(NC(=O)c3cccs3)s2)c1

Following part
PINK1 modulator	smiles
1.1%	COc1cc(NS(=O)(=O)c2c(C)nc3sc(C)c(C)n3c2=O)cc(OC)c1
2.4%	CCCn1c2ccccc2c2cnn(CC(=O)NCCc3ccc(S(N)(=O)=O)cc3)c(=O)c21
1.4%	O=C(CSc1cn(CC(=O)N2CCCCC2)c2ccccc12)Nc1ccccc1
-0.1%	COc1cc(CNC(=O)c2cnn(-c3ncc4c(n3)-c3ccccc3CC4)c2C)cc(OC)c1OC
-0.2%	COc1ccc(CNC(=O)CN2C(=O)c3cccnc3Oc3ccc(C)cc32)cc1
3.1%	Cc1cc(NC(=O)c2cccc(Cl)c2)ccc1-c1cc2ccccc2oc1=O
0.6%	Cc1ccc(NC(=O)C2CCN(c3nnc(C)c4c(C)n(-c5ccccc5)nc34)CC2)c(Cl)c1
1.8%	CCOc1ccccc1-n1nnc(-c2nc(-c3ccccc3)no2)c1N
-2.0%	COc1ccc(NS(=O)(=O)c2ccc3c(c2)NC(=O)CCS3)c(OC)c1
-1.1%	Cc1cccc(NC(=O)CSc2nc(=O)n(Cc3cccnc3)c3c2CCC3)c1C
1.4%	Cc1cccc(C)c1NC(=O)Cn1c(=O)n(Cc2ccc3c(c2)OCO3)c(=O)c2oc3ccccc3c21
2.1%	Cc1ccc(NC(=O)Nc2nnc(N(CC(C)C)CC(C)C)s2)cc1Cl
-0.8%	Cc1ccc2c(CN3CCN(Cc4ccccc4Cl)CC3)cc(=O)oc2c1
-0.4%	Cc1ccc(CCNC(=O)c2ccc3c(c2)nc2n3CCC(C)C2)cc1 (stereo unspecified)
0.0%	CC(=O)Nc1ccc(C(=O)CSc2nnc(-c3ccccc3)n2-c2ccccc2)cc1
0.3%	COC(=O)c1nc2n(n1)C(c1cc(OC)ccc1OC)C(C(=O)Nc1ccc(C)cc1C)=C(C)N2 (stereo unspecified)
1.4%	O=C(Nc1cccc(Cl)c1)N1CCSc2ccccc21
0.1%	CCOc1ccccc1NC(=O)Cn1c(=O)n(Cc2ccccc2)c(=O)c2c1c1cc(C)ccc1n2C
-3.8%	COc1ccccc1-c1nn(CCC(=O)Nc2ccc(C)cc2)c2nc(C)cc(C)c12
1.7%	CCOCCCNc1nc2ccccc2n2c(CC)nnc12
4.1%	COc1ccccc1NC(=O)CSc1ncc2c(n1)-c1cc(Cl)ccc1N(C)S2(=O)=O
-0.2%	Cc1cc(C)c(Cn2c(=O)n(CCC(=O)NCc3ccc4c(c3)OCO4)c(=O)c3ccccc32)c(C)c1
-0.8%	Cc1cc(C(=O)Nc2ccccc2-c2nc(CNC(=O)c3cc4ccccc4cn3)c(C)o2)c(C)o1
9.7%	Cc1ccc(CNC(=O)c2ccc3c(c2)NC(=O)C(CS(=O)(=O)Cc2cccc(C)c2)N3)cc1 (stereo unspecified)
0.5%	COc1ccc(NC(=O)c2cc3cc(C)ccc3n2C)cc1

Additional records:
PINK1 modulator	smiles
1.3%	O=C(CSc1c2c(nc3ccc(Cl)cc13)CCCC2)N1CCCCC1
-3.3%	Cc1cccc(NC(=O)COc2ccc3oc4c(c3c2)CCCC4)c1
0.5%	CCc1nn2c(-c3ccco3)ccnc2c1-c1ccc(F)cc1
1.8%	COc1ccccc1CNc1nc2ccc(Cl)cc2n2cnnc12
-0.8%	CCC1C(=O)NCCN1Cc1ccc2c(c1)CN(Cc1cc(OC)c3c(c1)OCO3)CCO2 (stereo unspecified)
0.0%	COc1ccc(N(C(=O)c2ccc(Cl)cc2)S(=O)(=O)c2ccc(C)cc2)cc1
0.8%	CCCC(=O)NCC(c1ccc2c(c1)OCO2)N1CCN(c2ccc(F)cc2)CC1 (stereo unspecified)
-0.9%	Cc1ccc(CNC(=O)CN2N=C(c3ccccc3)CCC2=O)cc1
1.5%	Cc1ccc(C)c(NC(=O)c2ccc3c(c2)CCN3S(=O)(=O)c2ccccc2)c1
-0.1%	Cc1ccc(OCc2nnc(SCC(=O)Nc3ccccc3C(C)C)o2)cc1
-0.9%	COCCn1ccc2c(OCC(=O)NCc3ccc(F)cc3)cccc2c1=O
1.8%	c1ccc(-c2cn(-c3ccccc3)c3ncnc(N4CCN(c5ccccc5)CC4)c23)cc1
1.8%	CC(=O)Nc1cc(C(=O)NCc2ccc(F)cc2)ccc1Sc1ccc(C)cc1
-1.8%	Cc1cccc(C)c1-n1ncc(C(=O)NC2CCCC2)c1C1CCN(C(=O)OC(C)(C)C)CC1
2.4%	CCn1c(C(=O)Nc2c(C)cccc2C)cc2sc(Cl)cc21
0.1%	CCOC(=O)c1c(SCC(=O)Nc2nc3ccccc3s2)nc(=O)[nH]c1C
-4.4%	OCc1cnc(SCc2cccc(F)c2)n1Cc1ccc(F)cc1
0.3%	Cc1ccc(NC(=O)C(CC(C)C)N2Cc3ccccc3C2=O)cc1F (stereo unspecified)
1.2%	COc1ccc(CCNC(=O)c2ccc3c(c2)nc2n3CCC(C)C2)cc1OC (stereo unspecified)
2.2%	Cc1nc2ccn(Cc3cccnc3)c(=O)c2cc1C(=O)NCc1ccccc1
0.8%	CC(C)(C)OC(=O)N1CCN(c2nc(-c3cccs3)nc3ccccc23)CC1
1.9%	CC(C)(C)C(=O)CSc1nc2ccsc2c(=O)n1Cc1ccccc1Cl
4.3%	Cc1ccccc1OCc1cc(=O)n2c(-c3ccccc3)csc2n1
1.5%	COc1ccc(CCNC(=O)CN2C(=O)COc3ccc(C)cc32)cc1OC
1.3%	O=C(NCc1ccncc1)c1cnn(-c2ncc3c(n2)-c2ccccc2CC3)c1C1CC1

13 compounds from above, arranged by count of non-hydrogen atoms, descending.
PINK1 modulator	smiles
9.7%	Cc1cccc(C)c1NC(=O)Cn1c(=O)n(CCC(=O)NCc2ccccc2Cl)c(=O)c2sccc21
-0.1%	CCc1ccc2[nH]c(=O)c(CN(Cc3cccnc3)Cc3nnnn3Cc3ccccc3)cc2c1
-0.1%	CCCCCCCCCCCCCC(=O)Nc1ccc(/C=C/c2ccnc3ccccc23)cc1
0.6%	CCOC(=O)c1c(S(=O)(=O)N2CCCC(C(=O)Nc3cccc(C#N)c3)C2)c(C)n(C)c1C (stereo unspecified)
0.0%	CC(=O)Nc1ccc(C(=O)CSc2nnc(-c3ccccc3)n2-c2ccccc2)cc1
4.4%	COc1ccccc1CNC(=O)CS(=O)(=O)Cc1nc(-c2ccccc2C)oc1C
1.5%	Cc1ccc(C)c(NC(=O)c2ccc3c(c2)CCN3S(=O)(=O)c2ccccc2)c1
1.1%	COc1cc(NS(=O)(=O)c2c(C)nc3sc(C)c(C)n3c2=O)cc(OC)c1
1.9%	CC(C)(C)C(=O)CSc1nc2ccsc2c(=O)n1Cc1ccccc1Cl
0.7%	Cc1ccccc1NC(=O)c1cnc2sc(N3CCCC3)nn2c1=O
1.6%	CCCCCOc1ccccc1Cn1c(=O)oc2ccc(C)cc21
1.3%	CS(=O)(=O)N1CCc2cc(C(=O)Nc3cccc(F)c3)ccc21
8.7%	COc1cccc(Cn2c(=O)cc(C)c3c(C)nn(C)c32)c1

(further entries)
PINK1 modulator	smiles
2.0%	CC(C)Cc1nn2c(=O)cc(COC(=O)c3ccccc3NC(=O)c3ccccc3)nc2s1
1.7%	Cc1ccc(NC(=O)C(Cc2ccccc2)NS(=O)(=O)c2ccc3c(c2)c(=O)n(C)c(=O)n3C)cc1 (stereo unspecified)
3.0%	Cc1ccc(CNC(=O)c2ccc3c(c2)NC(=O)C(CS(=O)(=O)Cc2cccc(F)c2)N3)cc1 (stereo unspecified)
-1.2%	N#Cc1ccccc1NC(=O)CSc1nnc(N)s1
2.6%	COc1ccc(-n2ccnc(NCc3cccs3)c2=O)cc1OC
0.4%	Cc1ccsc1CN(C(=O)c1ccc(OCC(C)C)cc1)C1CCS(=O)(=O)C1 (stereo unspecified)
0.7%	Cc1ccc(NC(=O)c2cc3ccccn3n2)cc1F
0.2%	Cn1cc(S(=O)(=O)N2CCCCCC2)cc1C(=O)N1CCN(c2cccc(Cl)c2)CC1
-12%	Cc1ccc2nc(N(Cc3cccnc3)C(=O)CCc3ccccc3)sc2c1
0.1%	CC(=O)Nc1ccc(-n2c(CCC(=O)O)ccc2-c2ccc(C)cc2)cc1
1.7%	Cc1ccc(NC(=O)C2CCN(S(=O)(=O)c3cccc4nsnc34)CC2)cc1
0.7%	O=C(Nc1cccc(F)c1)c1oc2ccccc2c1NC(=O)C12CC3CC(CC(C3)C1)C2

Screening data as filed in PubChem BioAssay.
